Screening data deposited in PubChem BioAssay by ICCB-Longwood Screening Facility, Harvard Medical School.
MbtI inh: MbtI salicylate synthase inhibition | 100,000 tested, 0.89% active | AID 493033 | inhibition, %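 (about 17 µg/mL by stock and volumes)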 | P9WFX0 | purified MbtI enzyme, fluorescence intensity read-out;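 active means above 50% in both replicates, above 80% if mildly self-fluorescent; inactive means the rest, strongly fluorescent compounds included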;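 further: 0% = mean of negative and 100% = mean of positive controls; one replicate is shown; some compounds called inactive have numbers as strong as hits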
MenB inh: blocks the Mycobacterium tuberculosis MenB enzyme | P9WNP5 | MenB enzyme assay, absorbance read-out; some hits fall short of the stated cut | inhibition, %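 (about 12 µg/mL by stock and volumes)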 | 100,000 tested, 0.43% active | AID 540299;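 active means mean of two replicates above 30%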;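 further: 0% = no compound and 100% = wells with inactive enzyme; the first replicate is given; strong numbers were not always called active; inactives centre near -10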
Target sequence (P9WNP5 whole entry, looked up): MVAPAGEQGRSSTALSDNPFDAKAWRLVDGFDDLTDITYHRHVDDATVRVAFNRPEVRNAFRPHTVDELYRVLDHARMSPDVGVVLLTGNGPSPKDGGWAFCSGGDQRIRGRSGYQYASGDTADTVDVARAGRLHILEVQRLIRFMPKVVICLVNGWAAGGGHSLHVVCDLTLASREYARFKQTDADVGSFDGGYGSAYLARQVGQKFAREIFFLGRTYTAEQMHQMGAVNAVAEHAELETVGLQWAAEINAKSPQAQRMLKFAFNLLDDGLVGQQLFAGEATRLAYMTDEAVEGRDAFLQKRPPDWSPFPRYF
PV pol inh: poliovirus RNA polymerase inhibition. poliovirus polymerase elongation, fluorescence polarization; stronger effect = lower value. 150,000 tested, 0.66% active. % elongation, % (compound at 16.7 µg/mL); in the data active means % elongation below about 90%; further: some results filed as inactive read as strong as hits
Target sequence (P03300 1749-2209 limits assumed): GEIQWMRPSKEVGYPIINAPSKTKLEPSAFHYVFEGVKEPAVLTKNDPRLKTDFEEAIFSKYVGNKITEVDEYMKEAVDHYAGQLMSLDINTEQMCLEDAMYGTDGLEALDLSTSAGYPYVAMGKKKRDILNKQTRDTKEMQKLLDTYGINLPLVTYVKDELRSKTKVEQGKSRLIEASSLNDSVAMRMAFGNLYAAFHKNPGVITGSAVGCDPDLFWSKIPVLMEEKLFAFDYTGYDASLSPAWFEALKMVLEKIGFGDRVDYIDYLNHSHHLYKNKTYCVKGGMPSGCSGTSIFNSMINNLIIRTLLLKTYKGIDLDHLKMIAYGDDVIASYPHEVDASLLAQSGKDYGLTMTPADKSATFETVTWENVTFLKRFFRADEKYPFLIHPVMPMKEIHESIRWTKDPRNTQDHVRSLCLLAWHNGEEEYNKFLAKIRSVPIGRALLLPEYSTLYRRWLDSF
PV pol inh intensity: second read-out of PV pol inh, no call of its own (marks repeat the call); % elongation; measured here: total intensity read-out; formula for this scale not given here;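 total fluorescence in place of polarization; lower means less elongation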
* marks the source's active call; other numbers are inactive results; i = inactive; · = not tested or not shown; & = joins results of further samples.

SMILES | MbtI inh | MenB inh | PV pol inh | PV pol inh intensity
Cc1noc(/C=C/c2ccco2)c1S(=O)(=O)N1CCC(C(=O)N2CCCCC2)CC1 | -0.2 | -13.5 | 105.0 | 108.0
N/N=C(\CCC(=O)O)c1ccccc1 | 2.6 | -7.4 | 100.0 | 105.0
COc1cc2c(cc1OC)-c1c(C#N)c(-c3ccc(C)cc3)c(C(=O)c3cccs3)n1CC2 | -12.6 | -3.1 | 98.0 | 107.0
COc1ccc(S(=O)(=O)C(F)(F)F)cc1S(=O)(=O)C(F)(F)F | -3.4 | 5.2 | 101.0 | 101.0
Cc1oc(C(C)(C)C)cc1C(=O)NCc1csc(-c2cccs2)n1 | 78.4 | -3.9 | 98.0 | 109.0
CC(SCCc1ccccn1)C(=O)O (configuration not stated) | · | -5.3 | 102.0 | 110.0
O=C1CCc2cc(S(=O)(=O)NCc3ccccc3)ccc2N1 | 1.5 | 2.3 | 101.0 | 110.0
Fc1ccc(CN(Cc2ccco2)Cc2nnnn2CCc2ccccc2)cc1 | -4.3 | -80.2 | 105.0 | 100.0
Cc1cc(N2CCCC2)ccc1NC(=O)CNC(=O)C1CCCCC1 | 10.2 | -11.0 | 102.0 | 97.0
CCn1c(=O)c2cc(C(=O)NCC(OC)OC)sc2c2ccccc21 | 103.3 | -21.0 | 103.0 | 107.0
COC(=O)CSc1nc2c3ccccc3ncn2n1 | -7.6 | -19.9 | 107.0 | 108.0
CCN(CC)C(=O)c1noc2c1COc1ccccc1-2 | 11.8 | -4.3 | 100.0 | 101.0
CN(C)C=Nc1ccc(C(=O)/C=C/N(C)C)cc1 | 4.3 | -53.5 | 106.0 | 105.0
O=C(O)Cc1ccc2ccccc2c1Br | -4.5 | · | 104.0 | 102.0
COc1ccccc1OCCSc1nc2ncnc(N)c2[nH]1 | 4.5 | -11.1 | 102.0 | 104.0
CCC1(C)Cc2c(sc3nc(SC)n4c(SCc5ccccc5)nnc4c23)CO1 (configuration not stated) | -76.8 | -3.8 | 104.0 | 106.0
CCOC(=O)c1sc(NC2CCCC2)nc1C | 16.8 | -15.6 | 100.0 | 107.0
O=C(O)CCN1C(=O)CSC1=O | 3.1 | -48.8 | 103.0 | 100.0
CC1=NNc2nc3c(c(=O)[nH]c(=O)n3C)n2C1 | -10.4 | -11.3 | 101.0 | 99.0
Cc1ccc(CNC(=O)c2c(C)cc(=O)oc2C)cc1 | 3.6 | -1.1 | 101.0 | 106.0
CCC1CCCCN1C(=O)Cn1c(SCc2ccc(OC)cc2)nc2ccncc21 (configuration not stated) | 7.8 | -2.2 | 100.0 | 101.0
CCc1cccc(NC(=O)Cn2cccc2)c1 | 6.5 | -3.7 | 100.0 | 97.0
Cc1cc(C(C)C)n2c(nc3ccccc32)c1C#N | -6.8 | -14.8 | 116.0 | 134.0
O=C(O)C1CCCN(c2nn3cc(-c4ccc(F)cc4)nc3s2)C1 (configuration not stated) | 96.2 | 1.6 | 97.0 | 98.0
CC(=O)Nc1ccc(S(=O)(=O)NC(CC(=O)O)C(C)C)cc1 (configuration not stated) | -10.6 | 10.3 | 101.0 | 104.0
(further entries)
SMILES | MbtI inh | MenB inh | PV pol inh | PV pol inh intensity
O=C(c1ccc(Br)o1)N(c1ccccn1)C1CCCCC1 | 2.8 | -13.1 | 112.0 | 126.0
O=C1C(=Cc2cccnc2)C(=O)c2ccccc21 | · | -74.5 | 91.0 | 85.0
CC1(C)Cc2c(sc(NC(=O)Cc3ccccc3)c2C#N)C(C)(C)N1 | · | -7.7 | 103.0 | 112.0
COC(=O)c1c(O)c[nH]c1C | 1.4 | 6.4 | 102.0 | 102.0
Cc1cccc(N2CCN(C(=O)Nc3cn(C)c(=O)c4ccccc34)CC2)c1C | 6.1 | 9.8 | 103.0 | 96.0
O=C(OCC(=O)N1CCc2ccccc21)c1ccc(S(=O)(=O)NCc2ccco2)cc1 | 9.0 | -29.8 | 105.0 | 102.0
CN1CCN(S(=O)(=O)c2ccc(NC(=S)NC(=O)C3CCCC3)cc2)CC1 | -11.8 | -10.1 | 102.0 | 105.0
Cc1ccc(C(=O)OCN2C(=O)c3ccccc3C2=O)cc1 | -5.5 | -5.8 | 102.0 | 109.0
O=C(NCCN1C(=O)S/C(=C\c2cccnc2)C1=O)c1cccc(S(=O)(=O)N2CCN(c3ccc(F)cc3)CC2)c1 | 0.1 | -31.7 | 100.0 | 91.0
COC(=O)c1ccc(C)c(NC(=O)C2CC(=O)N(Cc3ccc(C)cc3)C2)c1 (configuration not stated) | 18.6 | 13.5 | 101.0 | 100.0
O=C(NCCOc1ccc2ccccc2c1)c1cncc(Br)c1 | · | -2.3 | 95.0 | 94.0
CC12CC(/C(=C(O)\C=C\c3ccccc3)C(=O)N1)c1ccccc1O2 (configuration not stated) | 0.0 | 2.1 | 100.0 | 97.0
O=C(NNc1ccccc1C(F)(F)F)c1ccno1 | 11.4 | -30.7 | 106.0 | 107.0
CCSc1nnc(SCC(=O)NCc2ccc(OC)c(C(=O)O)c2)s1 | 0.9 | -16.0 | 98.0 | 103.0
O=C(OCc1nc2ccccc2s1)c1n[nH]c(=O)c2ccccc12 | -12.1 | -14.2 | 103.0 | 101.0
CCOc1ccc(CCNC(=O)CN2Cc3ccccc3C2=O)cc1OCC | -3.9 | -16.1 | 102.0 | 100.0
CN(CC(=O)NCc1ccccc1)Cc1nc2ccccc2c(=O)[nH]1 | 5.9 | -4.1 | 102.0 | 107.0
O=C(NC1CCCCC1)C(c1ccc(O)c(O)c1)N(C(=O)Cn1nnc2ccccc21)C1CCCCC1 (configuration not stated) | 7.3 | -9.7 | 104.0 | 102.0
CC(C)CCSc1nc(N)c(C#N)cc1C#N | i | -0.7 | 95.0 | 115.0
N#CCS(=O)(=O)c1ccc2c(c1)OCCO2 | 0.2 | -2.6 | 106.0 | 102.0
CCCC(CCC)C(=O)Nc1ccccc1 | -6.8 | 3.1 | 101.0 | 103.0
Cc1ccc(-c2nnc(SCC(=O)NCC3COc4ccccc4O3)o2)cc1 (configuration not stated) | 1.6 | 4.9 | 100.0 | 104.0
CCc1noc(CC)c1C(=O)O | -3.5 | 15.1 | 100.0 | 101.0
Cc1ccc(C(=O)CC(C(=O)O)n2cncn2)cc1 (configuration not stated) | 4.8 | 17.2 | 99.0 | 103.0
CCOc1cc(N2CCOCC2)c(OCC)cc1NC(=O)C1=NN(c2ccccc2)C(=O)CC1 | -4.8 | -5.0 | 102.0 | 109.0
Following part
SMILES | MbtI inh | MenB inh | PV pol inh | PV pol inh intensity
Cc1cc(N2CCC(C)CC2)nc2cccc(O)c12 | -20.9 | -61.8 | 100.0 | 103.0
O=C(CCCC(=O)c1ccccc1)Nc1ncn[nH]1 | 3.4 | 3.0 | 99.0 | 99.0
CC(C)NC(=O)N1c2ccccc2Sc2ccccc21 | -5.7 | -2.7 | 99.0 | 102.0
COC(CNC(=O)c1cnn2c(C)c(Cc3c(C)cc(C)cc3C)c(C)nc12)OC | 67.5 | -16.6 | 102.0 | 105.0
COc1ccc2[nH]c(C)cc(=O)c2c1 | 197.4 | · | 103.0 | 102.0
CCn1nc(C)c(NC(=O)CCSc2nc(-c3ccco3)cc(C(F)(F)F)n2)c1C | -4.8 | -16.1 | 102.0 | 102.0
O=CNc1nonc1NC(=O)c1ccccc1Cl | · | -8.2 | 107.0 | 102.0
CCCCC/C=C\CC1OC1C/C=C\C/C=C\CCCC(=O)O (configuration not stated) | -7.8 | 8.6 | 100.0&99.0 | 106.0&105.0
CCCCOc1ccc(C(=O)O/N=C(\C)c2ccco2)cc1 | -22.0 | 3.3 | 100.0 | 102.0
Cc1cccc2cc(C#N)c(SCC(=O)NCC3CCCO3)nc12 (configuration not stated) | -9.5 | 27.5 | 100.0 | 105.0
CC1CCc2c(sc3nc(Cc4nc5ccccc5n4C)[nH]c(=O)c23)C1 (configuration not stated) | -23.1 | -38.6 | 114.0 | 112.0
CC(C)(CO)NC(=S)NCc1ccco1 | -1.0 | -4.0 | 103.0 | 97.0
O=c1[nH]c2ccccc2nc1-c1c[nH]n(-c2ccccc2)c1=O | -0.7 | -20.9 | 99.0 | 105.0
COC(CNC(=O)c1ccc2c(c1)ncn2-c1cccc(F)c1)OC | -21.9 | -30.1 | 101.0 | 101.0
CCn1c(SC)nnc1C1CCN(C(=O)N2CCCC2)CC1 | -2.5 | -70.3 | 102.0 | 101.0
Cc1c(C#N)c(NC(=O)CSc2nnc(-c3ccccc3)n2-c2ccc(Cl)cc2)n(CC2CCCO2)c1C (configuration not stated) | 97.2 | -41.7 | 101.0 | 109.0
CC1CCCC(C)N1Cc1cc2c3c(c(=O)oc2cc1O)CCC3 (configuration not stated) | 104.8 | -17.9 | 102.0 | 104.0
CC(C)CNC1=NCCS1 | 2.7 | · | 102.0 | 99.0
c1cc2c(cc1CNc1ccc3c(c1)CCC3)OCO2 | -2.5 | -3.7 | 101.0 | 104.0
Cc1cc(NC(=O)NCCNc2ncccc2C(F)(F)F)c(C(F)(F)F)o1 | -14.7 | -20.3 | 100.0 | 97.0
Cc1ccc(OCC(=O)Nc2ccccc2OC(F)F)c(C)c1 | 8.0 | -5.8 | 102.0 | 102.0
O=C(Cn1ccn(Cc2ccccc2)c(=O)c1=O)Nc1ccccc1 | -10.7 | -33.0 | 106.0 | 108.0
Clc1ccc2nc(N3CCCCC3)nc(-c3ccccc3)c2c1 | -7.9 | -4.4 | 102.0 | 109.0
CCc1ccccc1N1CC(c2nc3ccccc3n2CCc2ccccc2)CC1=O (configuration not stated) | -7.2 | -16.3 | 95.0 | 97.0
O=C(COC(=O)c1nc(Cl)ccc1Cl)c1ccc2[nH]c(=O)[nH]c2c1 | -6.0 | -8.4 | 38.0* | 51.0*

Just MbtI inh, for 7 of the compounds above:
| Structure | MbtI inh |
| --- | --- |
| CCCCOc1ccc(C(=O)O/N=C(\C)c2ccco2)cc1 | -22.0 |
| Cc1cccc2cc(C#N)c(SCC(=O)NCC3CCCO3)nc12 (configuration not stated) | -9.5 |
| CC1CCc2c(sc3nc(Cc4nc5ccccc5n4C)[nH]c(=O)c23)C1 (configuration not stated) | -23.1 |
| CC(C)(CO)NC(=S)NCc1ccco1 | -1.0 |
| O=c1[nH]c2ccccc2nc1-c1c[nH]n(-c2ccccc2)c1=O | -0.7 |
| COC(CNC(=O)c1ccc2c(c1)ncn2-c1cccc(F)c1)OC | -21.9 |
| CCn1c(SC)nnc1C1CCN(C(=O)N2CCCC2)CC1 | -2.5 |

5 compounds already listed, ordered by formula weight, low to high:
SMILES | MbtI inh | MenB inh | PV pol inh | PV pol inh intensity
COc1ccc2[nH]c(C)cc(=O)c2c1 | 197.4 | · | 103.0 | 102.0
CC(C)(CO)NC(=S)NCc1ccco1 | -1.0 | -4.0 | 103.0 | 97.0
c1cc2c(cc1CNc1ccc3c(c1)CCC3)OCO2 | -2.5 | -3.7 | 101.0 | 104.0
CC1CCc2c(sc3nc(Cc4nc5ccccc5n4C)[nH]c(=O)c23)C1 (configuration not stated) | -23.1 | -38.6 | 114.0 | 112.0
COC(CNC(=O)c1cnn2c(C)c(Cc3c(C)cc(C)cc3C)c(C)nc12)OC | 67.5 | -16.6 | 102.0 | 105.0

Further entries.
SMILES | MbtI inh | MenB inh | PV pol inh | PV pol inh intensity
CC1Sc2ccc(S(=O)(=O)C(C)CC(=O)N3CCN(c4ccccc4F)CC3)cc2NC1=O (configuration not stated) | 16.1 | -16.3 | 102.0 | 104.0
CC(NC(N)=O)C12CC3CC(CC(C3)C1)C2 (configuration not stated) | -5.1 | -26.7 | 99.0 | 102.0
C=CCN1C(=O)/C(=C2/C=CC=CN2C)SC1=S | 21.5 | -224.5 | 104.0 | 99.0
C=CCn1c(SCC(=O)c2ccc3c(c2)NC(=O)CO3)nc2cc(Cl)ccc2c1=O | 6.2 | 9.9 | · | ·
N=c1c(C(N)=O)cc2c(=O)n3ccccc3nc2n1C1CCCC1 | 106.0 | -201.6 | 100.0 | 104.0
CCOC(=O)c1ccc(-c2ccc(C=C3C(=O)NC(=O)NC3=O)o2)cc1 | 0.3 | 10.3 | 97.0 | 107.0
CN(C)S(=O)(=O)c1ccc(=O)n(CC(=O)N2CCSC2c2ccccc2F)c1 (configuration not stated) | -12.3 | -15.0 | 100.0 | 108.0
CC1CCN(CC(=O)c2cccc(C(F)(F)F)c2)CC1 | -7.9 | -12.0 | 101.0 | 92.0
Cc1ccc(CC(=O)NCC(O)c2ccccc2)cc1 (configuration not stated) | -10.6 | · | 103.0 | 107.0
O=C(O)/C=C/c1ccc(SC(F)F)cc1 | 2.4 | -3.9 | 95.0 | 95.0
N#Cc1oc2ccccc2c1NC(=O)CSc1nnc2n(-c3ccccc3)c(=O)c3ccccc3n12 | 29.6 | 2.5 | 106.0 | 113.0
Clc1ccc(C2(c3noc(-c4cccs4)n3)CC2)c(Cl)c1 | -0.2 | 4.4 | 99.0 | 105.0
O=C1CC(C(=O)N2CCOCC2)C2(CCCCC2)O1 (configuration not stated) | -23.3 | -74.3 | 101.0 | 101.0
Cc1ccc(OCCN)c(Br)c1 | · | -12.2 | 104.0 | 104.0
C=CCn1c(CCN2CCCCC2)n[nH]c1=S | 11.4 | -0.9 | 103.0 | 106.0
C=CCOc1nc(N(C)C)nc(N2CCOCC2)n1 | 4.2 | -22.1 | 103.0 | 99.0
CCN(C(=O)c1cn(CC(C)C)c(=O)c2cc(OC)c(OC)cc12)c1ccccc1C | 5.2 | 3.2 | 101.0 | 103.0
COCCN1C(=O)/C(=C/c2sccc2C)SC1=S | · | -7.5 | 101.0 | 110.0
CC(=O)NCCNc1nc2c(S(=O)(=O)c3ccc(C)cc3)nnn2c2ccccc12 | 105.6 | -25.7 | 101.0 | 108.0

Compounds as they come (roughly 1.8% active in at least one column).
